# Screening results (PubChem BioAssay)
# miR-21 reporter: raises the signal of a miR-21 reporter. HeLa miR-21 FLuc reporter, luciferase, 48 h. Potency, µM (series often up to 38.3 µM), for the others: at the top dose reporter change, positive = more light. 340,000 tested, under 10 active. AID 2288; active = well fitted rising curve with a large enough effect; inconclusive = small, poorly fitted or top-dose-only effect; inactive = no such curve, though single readings can be large or run the other way;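 further: % of control where 0% means no effect; miR-21 action dims this reporter so a rising signal means less miR-21 action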
#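 HeLa cells stably expressing CMV-driven firefly luciferase with a downstream miR-21 binding sequence, endogenously expressing miR-21, were treated with titrations (up to about 40uM final) for 48 hours at 37 degree Celsius. Luciferase luminescence was read after lysis.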
# Rango dissoc inh: prevents RanGTP from dissociating the Rango-importin beta complex. AID 540253. 340,000 compounds, 0.071% hits. Potency, µM (doses to about 46.1 µM), inactives show top-dose activity change, negative = inhibition. Biochemical FRET Rango-importin beta, RanGTP-induced dissociation; active means falling FRET ratio curve, often poorly fitted, with flat reads before Ran was added; inconclusive means other falling curves, or compound fluorescence or quenching; inactive means flat or rising ratio curve;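 further: potency means the concentration at half of the fitted maximal effect; % of control where 0% means no effect; nearly all actives have a fitted effect of over 45% in size; -100% = wells without RanGTP and RCC1; the record marks most hits as doubtful in a second field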
#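 Compounds preincubate 5 min with complex of recombinant Rango and importin beta in PBS with 1 mM DTT. Ran (0.6 uM) loaded with 2 mM GTP plus 0.2 uM RCC1 starts dissociation; FRET is recorded 45 min later.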
# GLA inh pH 4.5: inhibitors of human alpha-galactosidase A at pH 4.5; purified enzyme, 4-MU-alpha-Gal fluorescence, pH 4.5; activity change, negative = inhibition, % at 105 µM; AID 1467; P06280; 230,000 tested, under 10 active; inconclusive = small, poorly fitted or top-dose-only inhibition, or a rising curve; inactive = flat fitted curve, though single readings scatter; no compound was filed as active;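 further: 0% = full activity with enzyme and -100% = basal without enzyme; dose as in the result columns while the protocol names 77 µM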
# Rango-impB inh: prevents formation of the Rango-importin beta complex | Rango CFP/YFP FRET sensor + importin beta, 45 min | Potency, µM (series often up to 92.2 µM), for inactives: top-dose inhibition of complex formation | 340,000 compounds, 0.031% hits | AID 540263; active = rising FRET ratio curve, often small or poorly fitted; inconclusive = mostly compound fluorescence or quenching in the first reads; inactive = flat curves in all reads;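 further: potency means the concentration at half of the fitted maximal effect; 0% = DMSO wells and 100% = buffer wells lacking importin beta; nearly all actives have a fitted effect of over 15% in size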
# Target sequence (Q14974 whole entry, looked up): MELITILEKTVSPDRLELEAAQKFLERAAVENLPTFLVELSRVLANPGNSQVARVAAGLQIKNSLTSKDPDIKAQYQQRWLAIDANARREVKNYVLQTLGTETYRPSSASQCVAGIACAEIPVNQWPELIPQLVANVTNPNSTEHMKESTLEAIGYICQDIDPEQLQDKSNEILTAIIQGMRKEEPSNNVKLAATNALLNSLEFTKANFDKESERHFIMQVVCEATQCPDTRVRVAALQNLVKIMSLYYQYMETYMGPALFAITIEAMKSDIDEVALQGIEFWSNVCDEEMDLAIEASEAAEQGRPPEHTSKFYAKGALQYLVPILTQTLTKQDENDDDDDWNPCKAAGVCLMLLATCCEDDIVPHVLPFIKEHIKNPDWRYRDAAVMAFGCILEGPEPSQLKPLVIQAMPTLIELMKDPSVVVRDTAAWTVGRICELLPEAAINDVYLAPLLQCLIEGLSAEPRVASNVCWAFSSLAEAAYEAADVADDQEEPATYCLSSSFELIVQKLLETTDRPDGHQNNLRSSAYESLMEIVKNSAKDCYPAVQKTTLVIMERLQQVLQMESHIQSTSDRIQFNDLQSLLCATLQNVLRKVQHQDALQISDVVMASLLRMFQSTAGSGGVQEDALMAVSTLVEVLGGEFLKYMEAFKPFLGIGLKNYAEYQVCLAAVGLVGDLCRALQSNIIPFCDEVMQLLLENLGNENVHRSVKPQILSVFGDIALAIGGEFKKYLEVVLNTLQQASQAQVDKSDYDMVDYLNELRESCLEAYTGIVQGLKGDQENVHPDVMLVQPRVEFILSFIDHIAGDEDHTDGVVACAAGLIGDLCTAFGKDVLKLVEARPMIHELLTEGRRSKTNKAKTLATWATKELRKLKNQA
#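 Inhibition scored from the CFP 486 nm/YFP 530 nm FRET ratio 45 min after adding 0.125 microM importin beta to 50 nM Rango biosensor preincubated 5 min with compound (room temperature, PBS with DTT, Tween-20, BSA). No-importin wells as positive control.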
# * marks the source's active call; other numbers are inactive results; ? = inconclusive; . = no result given; & = joins results of further samples.
structure,miR-21 reporter,Rango dissoc inh,GLA inh pH 4.5,Rango-impB inh
CC(NC(=O)COC(=O)COc1ccc(C(=O)c2ccccc2)cc1)c1ccccc1 (stereo not given),.,-6.7%,.,0.4%
CCOc1ccc(OCCSc2nc3ccccc3o2)cc1,-5.3%,-1.0%,1.1,2.9%
CCOc1ccc(/C=N/OCC(=O)Nc2ccc3c(c2)OCO3)cc1,-7.9%,0.0%,-8.9,8.4%
COc1ccc(-c2noc(-c3ccccc3-c3ccccc3)n2)cc1,-18.2%,-14.1%,6.9,-0.3%
O=C(CNC(=O)c1ccccc1F)NC1CCN(Cc2ccccc2)CC1,-2.7%,-2.2%,.,7.9%
C=CCOc1c(Cl)cc(CNCCCN2CCOCC2)cc1OC,2.8%,18.7%,.,-0.4%
CN(c1ccccc1)S(=O)(=O)c1ccc(NC(=O)c2ccco2)cc1,-1.8%,10.5%,-8.5,-2.2%
O=C(Nc1ccccc1C(=O)O)c1ncn[nH]1,-4.3%,14.7%,0.4,?
COC(=O)C1=C(O)CSC1=Nc1cccc(C(F)(F)F)c1,0.3%,0.6%,-2.0,?
CC1(O)C(=O)c2ccccc2N(c2ccccc2)C1=O (stereo not given),-13.3%,?,-0.5,3.5%
Cc1sc2ncnc(N3CCC(C(=O)Nc4nc5ccc(Cl)cc5s4)CC3)c2c1C,.,-6.2%,.,-2.8%
COc1ccc(Oc2cc(C(F)(F)F)cnc2C(N)=O)cc1,-6.6%,2.4%,7.0,-2.3%
O=C(CCCn1cncn1)N1CCCC(N2CCN(c3ccccc3F)CC2)C1 (stereo not given),-0.4%,2.4%,.,-1.4%
O=Cc1c(Cl)[nH]c(=O)n1-c1ccccc1,0.1%,-13.6%,-14.5,0.8%
O=C(C1CCN(S(=O)(=O)c2cnc[nH]2)CC1)N1CCN(c2ccc([N+](=O)[O-])cc2)CC1,-3.2%,-1.0%,.,?
O=C(NCCCN1CCOCC1)C(=O)NCc1ccc(Cl)cc1,-1.8%,0.3%,-21.0,-3.3%
Cc1ccc(C2CC(=O)C=C(O)C2)cc1 (stereo not given),-2.2%,1.7%,3.7,-4.0%
CCc1cccc(C)c1NC(=S)N(Cc1cccnc1)Cc1ccco1,-4.9%,15.6%,3.5,0.7%
CCOc1ccc(-c2cc(C(=O)NCCCn3ccnc3)c3ccccc3n2)cc1,-15.3%,12.0%,-6.4,2.2%
O=C(c1ccc(Cl)cc1)c1ccc(OCC(O)CN2CCCCC2)cc1 (stereo not given),-2.3%,0.9%,-10.1,-3.0%
N/C(=N\OC(=O)COc1ccc(Cl)cc1Cl)c1cccnc1,-50.4%,-1.6%,3.6,1.7%
CCn1c(CNC(=O)c2cc(OC)c(OC)c(OC)c2)cc2cc(C)ccc21,15.8%,-0.5%,.,-0.8%
Cc1ccc(CNC(=O)CCS(=O)(=O)c2ccc3c(c2)CC(C)N3C(=O)C2CC2)cc1 (stereo not given),0.1%&18.9%,-18.2%,.,0.1%
CC12CCC(=O)C=C1C(F)CC1C2C(O)CC2(C)C1CCC2(O)C(=O)CO (stereo not given),.,-7.1%,.,0.0%
CCOc1ccc(C(=O)NN2C(=O)C3C4C=CC(O4)C3C2=O)cc1 (stereo not given),1.9%,2.9%,8.4,0.1%
Cc1ccccc1NC(=O)CSc1ccc(-c2ccco2)nn1,-4.9%,-18.9%,2.1,-5.1%
CCNS(=O)(=O)c1ccc(NC(=S)N2CCc3ccccc32)cc1,-7.9%,0.5%,.,-0.8%
OCCNC(=S)Nc1ccc2nsnc2c1,-0.4%,-10.0%,1.9,-0.1%
COc1ccc(C(=O)C2CCCN(C(=O)CSC)C2)cc1OC (stereo not given),-4.4%,2.5%,.,-0.2%
CCOc1c(Br)cc(C(N)=O)cc1OC,0.6%,13.1%,-2.6,-2.8%
CC(=O)N/C(=C\c1ccccc1)C(=O)OC(C)C(=O)NCc1ccccc1 (stereo not given),.,-4.3%,.,-0.1%
COc1cc2nc(N(CCCN(C)C)C(=O)c3ccc(S(=O)(=O)N4CCc5ccccc54)cc3)sc2cc1OC,.,-14.5%,.,1.5%
Cc1ccccc1NC(=O)C(C)N1C(=O)c2ccccc2C1=O (stereo not given),0.2%,-12.7%,.,-1.2%
Cc1ccc(Cc2c(C)nc3nc(SCC(=O)NCCCN4CCCC4)nn3c2C)cc1,0.2%,12.0%,.,1.5%
Cc1oc(-c2ccccc2Cl)nc1CS(=O)(=O)CC(=O)NC(C)c1ccccc1 (stereo not given),4.8%&4.0%,7.0%,.,3.3%
COC(=O)c1cc(S(=O)(=O)NCCc2sccc2C)c[nH]1,-2.5%,-6.3%,.,1.2%
CCOc1ccc(C(=O)NC(=S)Nc2cccnc2)cc1,-27.4%,-7.3%,0.9,-1.4%
CCOc1ccc(NC(=O)c2cnc3scc(C)n3c2=O)cc1,-8.0%,-6.8%,6.5,0.7%
CCCNC(=O)CSc1nc2ccc(OCC)cc2s1,-11.3%,12.9%,10.0,-1.0%
COc1ccc(C(=O)CCC(=O)O)c(C)c1,-2.0%,-21.3%,3.9,-1.1%
CCOC(=O)/C(=N\Nc1cccc(C(F)(F)F)c1)N(CCOC)CCOC,-6.2%,4.7%,-4.5,2.0%
Cc1ccc(C)c2[nH]c(=O)c(CN(CCCN(C)C)C(=O)NCc3ccccc3)cc12,-8.6%,-8.5%,3.8,-1.1%
Cn1c(N)c(N2CCCCC2)c(=O)n(CC(=O)Nc2cccc(C#N)c2)c1=O,.,-3.5%,.,-0.7%
O=S(=O)(Nc1ccc2c(c1)nc1n2CCN(Cc2ccccc2)C1)c1ccc(Cl)cc1,3.0%,-16.7%,-0.2,?
Cc1[nH]c2ccc3c(ncn3CCC#N)c2c1C,-13.4%,3.0%,2.6,-0.2%
CCc1ccc(C2=NNC(=Nc3cccc(S(=O)(=O)N(C)C)c3)SC2)cc1,29.0%,-10.0%,-1.3,-5.5%
CCC(CC)c1nnc(NC(=O)C2CC(=O)N(CCc3ccc(OC)c(OC)c3)C2)s1 (stereo not given),.,-0.5%,.,-3.1%
O=C(/C=C/c1ccccc1)C1=C(O)C(=O)N(CCO)C1c1cccc([N+](=O)[O-])c1 (stereo not given),-8.5%,-18.6%,-8.9,-0.2%
Cc1cccc(C(=O)Nc2sc3c(c2C(=O)O)CCCC3)c1,16.9%&19.2%,-3.3%,.,2.5%
COCC(=O)N1CCC(Oc2ccc(C(=O)NCCCC3CCCC3)cc2)CC1,-3.5%,-7.9%,.,-3.9%
Cc1ccc(NC2=C(CC(=O)O)C(c3ccccc3)N(c3ccc(C)cc3)C2=O)cc1 (stereo not given),11.5%,-5.8%,2.9,-4.2%
CCOc1ccc(N=Cc2c(O)c3ccccc3oc2=O)cc1,-5.4%,-16.0%,0.0,?
CCOc1ccccc1CNS(=O)(=O)c1cnc[nH]1,-1.8%,1.1%,.,-6.0%
CCNC(=O)/C(C#N)=C/c1c(N2CCCCCC2)nc2c(C)cccn2c1=O,4.8%,-28.7%,.,?
CC(CN1CCCCC1)C(=O)NN (stereo not given),-1.2%,-0.1%,1.2,0.4%
CCOC(=O)c1csc(NC(=O)Nc2cccc(Cl)c2)n1,0.7%,-24.1%,-0.7,-0.3%
N#Cc1ccc(NC(=O)COc2ccc(-n3cnnn3)cc2)cc1,.,2.2%,.,-1.2%
Cc1ccc(NC(=O)/C(C#N)=C/c2ccsc2)c(C)c1,-50.2%,-0.6%,-0.7,2.5%
COc1ccc(/C=C/C(=O)c2ccc(O)cc2)cc1,-42.5%,0.6%,-3.1,-0.8%
COc1ccc(OC)c(C2=Nn3c(nnc3-c3ccco3)SC2)c1,2.3%,17.0%,5.3,6.5%

# Structural class: the compounds so far containing a furan ring, fused or not
structure,miR-21 reporter,Rango dissoc inh,GLA inh pH 4.5,Rango-impB inh
CN(c1ccccc1)S(=O)(=O)c1ccc(NC(=O)c2ccco2)cc1,-1.8%,10.5%,-8.5,-2.2%
CCc1cccc(C)c1NC(=S)N(Cc1cccnc1)Cc1ccco1,-4.9%,15.6%,3.5,0.7%
Cc1ccccc1NC(=O)CSc1ccc(-c2ccco2)nn1,-4.9%,-18.9%,2.1,-5.1%
COc1ccc(OC)c(C2=Nn3c(nnc3-c3ccco3)SC2)c1,2.3%,17.0%,5.3,6.5%

# Further results follow.
structure,miR-21 reporter,Rango dissoc inh,GLA inh pH 4.5,Rango-impB inh
c1ccc2c(c1)Nc1cc3ccccc3cc1O2,.,0.2%,.,-2.8%
Cc1ccccc1NC(=O)CC1C(=O)NCCN1C(=O)c1cccc(Cl)c1 (stereo not given),-0.7%&-4.0%,-3.4%,.,3.2%
CCOCC(=O)Nc1ccc(C)c(Cl)c1,-5.0%,8.1%,13.1,0.4%
CCN1CN=C(NS(=O)(=O)c2ccc(C)cc2)NC1,-1.6%,30.1%,8.0,-1.4%
Cn1cccc1C(=O)OCc1csc(-c2ccccc2)n1,-32.7%,20.6%,0.0,1.4%
C(=N\Nc1nc(N2CCCC2)nc(N2CCCC2)n1)/c1ccccc1OCc1ccccc1,5.1%,-7.1%,-8.3,0.4%
CCc1c(C)nc2ccc(Br)cc2c1Cl,-26.2%,3.4%,-4.1,0.3%
Cc1ccc(-c2nc(CS(=O)CC(=O)NC3CCCC3)c(C)o2)cc1 (stereo not given),3.2%,-3.8%,2.6,0.1%
CC(=O)Nc1ccc(N/C=C/C(=O)c2ccc(C)cc2)cc1,-0.9%,?,.,?
O=C(CSc1c2c(nc3ccc(Cl)cc13)CCCC2)NCCCN1CCOCC1,21.3%,-6.7%,1.8,8.2%
COc1ccc(N2CCN(C(c3ccc4ncccc4c3)c3nnnn3C(C)(C)C)CC2)cc1 (stereo not given),-9.7%,1.7%,8.2,4.8%
CCOC(=O)C1=C2SCCN2C(=O)C(C#N)C1(C)C (stereo not given),-1.2%,29.2%,8.5,3.5%
COC(=O)c1ccc2nccnc2c1,-4.9%,14.2%,-0.3,2.0%
Cc1ccc(NC(=S)Nc2ccc(F)cc2)cc1,-18.2%,19.4%,.,1.3%
CCCCOc1ccc(C(C)NC(=O)C2CCCN(S(=O)(=O)CC)C2)cc1 (stereo not given),0.5%,1.2%,3.0,-4.7%
CC(NC(=O)C12CC3CC(CC(C3)C1)C2)C(=O)NCCN(C)C (stereo not given),-7.3%,-11.1%,0.6,-1.8%
Cc1ccc(CN2CCN(C(=O)CC(C)C)CC2)cc1,0.7%,0.5%,.,1.1%
O=C(COC(=O)/C=C/c1ccc(S(=O)(=O)N2CCOCC2)cc1)NCc1ccc(F)cc1,1.0%,18.4%,-3.9,-1.5%
CSc1nc(N)c(C(=O)Nc2ccc([N+](=O)[O-])cc2)s1,-32.1%,11.3%,1.3,?
COc1ccccc1C(=O)NC(CCSC)C(=O)NNC(=O)c1ccncc1 (stereo not given),.,-11.8%,.,-0.9%
O=C1C2ON(c3ccc(Br)cc3)C(c3cccnc3)C2C(=O)N1C1CCCCC1 (stereo not given),-0.6%,-4.4%,-4.9,-0.5%
NC(=O)c1ccsc1NC(=O)COC(=O)CNC(=O)c1ccc(F)cc1,.,9.2%,.,9.5%
CN1CC(=O)N(CC(=O)N2N=C(c3ccc(Cl)cc3)CC2c2ccco2)C1=O (stereo not given),-22.2%,-2.5%,11.8,-1.8%
C=CCn1c(SCC(=O)Nc2ccc(NC(C)=O)cc2)nc2sc(C)c(C)c2c1=O,.,-16.1%,.,2.0%
COc1ccccc1NS(=O)(=O)c1ccc(N/N=C(\C)C(C)C)c([N+](=O)[O-])c1,-2.4%,10.9%,-24.4,-0.9%
Cc1ccc(N2CCN(C(=O)N3CCOCC3)CC2)c(C)c1,-0.4%,-1.2%,3.0,-2.5%

# Some of the compounds tested (hit frequency here may not be typical).
